RE007 growth inh: less growth of the S. pombe RE007 Vpr strain; 360,000 compounds, 0.21% hits; Potency, µM (series often up to 92.2 µM), for the others: top-dose activity change, negative = less growth; S. pombe RE007 Vpr strain, BacTiter-Glo ATP luminescence, 24 h; control for the full effect not named in the record; active = well fitted falling curve with a large enough effect; inconclusive = small, poorly fitted or top-dose-only effect; inactive = no such curve, though single readings can be large or run the other way;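 further: on the % scale 0 is the no-effect control and ±100 the full control effect; nearly all actives have a fitted effect of over 50% in size; the assay follows cell death caused by Vpr and the record does not say whether a fall means rescue or toxicity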
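Fission yeast RE007 carrying one integrated HIV-1 vpr copy, seeded at OD 0.01 in PMG+AL medium with 23 nL pinned compound. Grown 24 h at 30 degrees; viability read by BacTiter-Glo luminescence after 5 min.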
StopGo reporter: lowers the luciferase signal of an FMDV 2A StopGo reporter | human cells with a luciferase reporter of 2A StopGo recoding; control for the full effect not named in the record | Potency, µM (series often up to 57.9 µM), without a hit: top-dose signal change, negative = less light | 410,000 compounds, 1.2% hits; active = well fitted falling curve with a large enough effect; inconclusive = small, poorly fitted or top-dose-only effect; inactive = no such curve, though single readings can be large or run the other way; tested in HEK293T cells; further: on the % scale 0 is the no-effect control and ±100 the full control effect; nearly all actives have a fitted effect of over 45% in size; luciferase light after 4 h
LASV entry inh: blocks Lassa virus binding to or entry into cells | 300,000 compounds, 1.2% hits | AID 540256 | Lassa virus pseudotype entry inhibition, cell reporter; control for the full effect not named in the record | Potency, µM (doses to about 37.9 µM), for inactives: top-dose activity change, negative = inhibition, hits mostly inhibitors; active means well fitted inhibition curve with a large enough effect; inconclusive means small, poorly fitted or top-dose-only effect, or effect the other way; inactive means flat fitted curve, though single readings scatter; tested in HEK293 cells; further: on the % scale 0 is the no-effect control and ±100 the full control effect; nearly all actives have a fitted effect of over 50% in size; luciferase read-out
Cruzain inh noDet: blocks cruzain activity in detergent-free assay; P25779; purified cruzain, Z-FR-AMC fluorescence, no detergent; Potency, µM, without a hit: max response, negative = inhibition, actives largely listed as inhibitors; 200,000 compounds, 2.3% hits; AID 1476; active means well fitted curve in the direction sought with a large enough effect; inconclusive means small, poorly fitted or top-dose-only effect, or another doubt; inactive means no such curve, though single readings can be large; an effect the other way counts as inactive or inconclusive;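 further: plate controls were enzyme without inhibitor for no effect and buffer without enzyme for full effect; nearly all actives have a fitted effect of over 40% in size; top concentration of the series not given in the record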
Target sequence (P25779 123-467 limits assumed): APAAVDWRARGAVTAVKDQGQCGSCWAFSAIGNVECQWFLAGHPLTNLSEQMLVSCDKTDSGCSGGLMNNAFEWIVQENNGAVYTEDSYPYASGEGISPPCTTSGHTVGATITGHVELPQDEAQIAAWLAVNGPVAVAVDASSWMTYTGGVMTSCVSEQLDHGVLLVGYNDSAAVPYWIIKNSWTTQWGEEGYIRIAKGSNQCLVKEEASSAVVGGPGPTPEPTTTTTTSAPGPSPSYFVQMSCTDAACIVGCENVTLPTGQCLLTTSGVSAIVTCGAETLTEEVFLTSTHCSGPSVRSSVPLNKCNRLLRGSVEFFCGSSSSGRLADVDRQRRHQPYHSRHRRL
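Detergent-free condition (0.00005% Triton X-100) in acetate buffer pH 5.5 with DTT. 1.5 nM enzyme and compound were pre-mixed 15 min, then 2 uM Z-FR-AMC substrate added; reaction progress from fluorescence change between first and third reads (60 s).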
SARS PLpro yeast: inhibitors of SARS-CoV papain-like protease in yeast; S. cerevisiae expressing SARS-CoV PLpro, growth rescue; control for the full effect not named in the record; Potency, µM (top dose mostly 32.9 µM), inactives show top-dose activity, positive = growth rescue; 330,000 compounds, 0.19% hits; further: 0% is about no effect; nearly all actives have a fitted effect of over 55% in size; growth read by luminescence after 48 h
NS1 inh: blocks influenza NS1 protein function; S. cerevisiae slowed by influenza A NS1, growth recovery by OD600; Potency, µM (series often up to 46.1 µM), for inactives: at the top dose activity, positive = more growth; 270,000 compounds, 0.4% hits; further: actives are rising curves; nearly all actives have a fitted effect of over 50% in size
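Compounds were scored for reversing the slow growth caused by influenza A NS1 in S. cerevisiae, measured by optical density at 600 nm. Assay medium contained 2% galactose at pH 6.0; NS1-free yeast of the same strain were the positive control.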
MARV entry inh: inhibitors of Marburg virus binding or cell entry; Marburg virus pseudotyped entry inhibition, cell reporter; control for the full effect not named in the record; about a third of the inactives were read at about 46 µM; Potency, µM (highest dose often 37.8 µM), without a hit: top-dose activity change, negative = inhibition, hits mostly inhibitors; 300,000 compounds, 1.8% hits; AID 540276; active = well fitted inhibition curve with a large enough effect; inconclusive = small, poorly fitted or top-dose-only effect, or effect the other way; inactive = flat fitted curve, though single readings scatter; tested in HEK293 cells; about a fifth of its hits are not listed in these tables; further: on the % scale 0 is the no-effect control and ±100 the full control effect; luciferase read-out
Cruzain inh Det: inhibitors of Trypanosoma cruzi cruzain with detergent. 200,000 compounds, 0.43% hits. P25779. Potency, µM, without a hit: max response, negative = inhibition, usual class: inhibitors. AID 1478. purified cruzain, Z-FR-AMC fluorescence, 0.01% Triton; active means well fitted curve in the direction sought with a large enough effect; inconclusive means small, poorly fitted or top-dose-only effect, or another doubt; inactive means no such curve, though single readings can be large; an effect the other way counts as inactive or inconclusive;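 further: plate controls were neutral wells for no effect and buffer without enzyme for full effect; nearly all actives have a fitted effect of over 40% in size; top concentration of the series not given in the record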
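Steps: dispense cruzain (1.5 nM final) in acetate buffer pH 5.5 with DTT and 0.01% Triton X-100; pin-transfer compounds; incubate 15 min RT; add Z-FR-AMC (2 uM final); read fluorescence every 30 s, using the 60 s intensity change.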
* marks the source's active call; other numbers are inactive results; & = joins results of further samples; [ ] = dose if it differs, or a comment. Unless noted, the call rests on the fitted dose curve; in most records, active means well fitted rising curve with a large enough effect; inconclusive means small, poorly fitted or top-dose-only effect; inactive means no such curve, though single readings can be large or run the other way. Potency means the concentration at half of the fitted maximal effect.

How did COc1cc(OC)cc(C(=O)Nc2nnc(-c3cccnc3)o2)c1 do in these assays?
RE007 growth inh: 2%; StopGo reporter: 12%; LASV entry inh: 17%; SARS PLpro yeast: -2%; MARV entry inh: inconclusive

How did COc1ccccc1C(=O)Nc1sc2c(c1C(=O)NCc1ccco1)CCCC2 do in these assays?
RE007 growth inh: 2%; StopGo reporter: 7%; LASV entry inh: -27%; Cruzain inh noDet: 7.9µM*; SARS PLpro yeast: 18%; NS1 inh: 2%; MARV entry inh: inconclusive; Cruzain inh Det: -24%

How did COc1ccccc1-c1nnc(NC(=O)c2ccc(S(=O)(=O)N3CCOCC3)cc2)o1 do in these assays?
RE007 growth inh: -5%; StopGo reporter: -19%; LASV entry inh: -27%; SARS PLpro yeast: 7%; NS1 inh: -3%; MARV entry inh: -13%

How did CCN1C(=O)N(CC)C2C1N(C(C)=O)C(=O)N2C(C)=O (configuration not stated) do in these assays?
RE007 growth inh: -3%; StopGo reporter: -12%; LASV entry inh: 6%; Cruzain inh noDet: 13%; SARS PLpro yeast: 25%; NS1 inh: 2%; MARV entry inh: 17%; Cruzain inh Det: -3.5%

Results for Cc1sc2nc(COC(=O)C(NC(=O)c3ccc(Cl)cc3Cl)C(C)C)[nH]c(=O)c2c1C (configuration not stated) ?
RE007 growth inh: -9%; StopGo reporter: 15%; LASV entry inh: 4%; Cruzain inh noDet: 3%; SARS PLpro yeast: 11%; NS1 inh: -7%; MARV entry inh: 25%; Cruzain inh Det: -6.4%

How did Cc1cc(C(F)(F)F)nn1CC(=O)NCc1ccccc1 do in these assays?
RE007 growth inh: -24%; StopGo reporter: -6%; LASV entry inh: 19%; Cruzain inh noDet: 3%; SARS PLpro yeast: -11%; NS1 inh: 1%; MARV entry inh: -2%; Cruzain inh Det: 4.4%

Results for Cc1ccc(-c2nc(-c3cc4c([nH]c3=O)CC(C)(C)CC4=O)sc2C)cc1 ?
StopGo reporter: 1%; LASV entry inh: 2%[46.1 µM]; Cruzain inh noDet: -2%; MARV entry inh: inconclusive; Cruzain inh Det: -3.7%

How did CCOC(=O)c1ccc(-c2ccc3c(c2)CCC3)nc1C do in these assays?
RE007 growth inh: -24%; StopGo reporter: 34%[activator]; SARS PLpro yeast: -1%; NS1 inh: -8%

Results for CSCC[C@H](NC(=O)c1cccs1)C(=O)N1CCC2(CC1)NCCc1[nH]cnc12 ?
RE007 growth inh: 0%; StopGo reporter: 0%; LASV entry inh: inconclusive; SARS PLpro yeast: 22%; NS1 inh: 3%; MARV entry inh: 0%[46.1 µM]

How did CCN1CC=C(c2c[nH]c3ccccc23)CC1 do in these assays?
RE007 growth inh: 5%; StopGo reporter: -4%; LASV entry inh: 6%; Cruzain inh noDet: -7%; SARS PLpro yeast: inconclusive; NS1 inh: 0%; MARV entry inh: inconclusive; Cruzain inh Det: 1.7%

What do the screens show for `CCCCCC/C(C=O)=C\c1ccccc1`?
RE007 growth inh: -16%; StopGo reporter: -15%; Cruzain inh noDet: -4%; SARS PLpro yeast: -6%; Cruzain inh Det: -8.5%

How did CC(=O)NN1C(=O)c2ccccc2NC1c1ccccn1 (configuration not stated) do in these assays?
RE007 growth inh: 0%; StopGo reporter: 9%; LASV entry inh: inconclusive; Cruzain inh noDet: 0%; SARS PLpro yeast: 3%; NS1 inh: 2%; MARV entry inh: 0%; Cruzain inh Det: 2.9%

What do the screens show for `NNC(=O)COc1ccc(F)cc1`?
RE007 growth inh: -7%; StopGo reporter: -14%; LASV entry inh: -1%; Cruzain inh noDet: 1%; SARS PLpro yeast: -11%; NS1 inh: -2%; MARV entry inh: 6%; Cruzain inh Det: 0.0%

Results for O=CNC(Cc1ccccc1)C(=O)O (configuration not stated) ?
RE007 growth inh: 10%; StopGo reporter: -3%; LASV entry inh: 3%; Cruzain inh noDet: 6%; SARS PLpro yeast: -3%; NS1 inh: 0%; MARV entry inh: -1%&-1%; Cruzain inh Det: 4.7%

Results for NS(=O)(=O)c1ccc(N=Cc2c(O)n(C3CCCCC3)c(=O)n(C3CCCCC3)c2=O)cc1 ?
RE007 growth inh: inconclusive; LASV entry inh: inconclusive; Cruzain inh noDet: 3%; SARS PLpro yeast: -15%; NS1 inh: -31%; MARV entry inh: inconclusive; Cruzain inh Det: -1.8%

What do the screens show for `COc1ccc(/C=C2\SC(=S)N(CCC(=O)N3CCCCC3)C2=O)cc1`?
RE007 growth inh: 7%; StopGo reporter: 0%; LASV entry inh: 15%; SARS PLpro yeast: -1%; NS1 inh: 7%; MARV entry inh: inconclusive

What do the screens show for `CC(C)(C)C(=O)O[C@H]1CC[C@@]2(C)C(=CC(=O)C3C2CC[C@]2(C)C(=O)[C@H](O)CC32)C1` (some centres not stated)?
RE007 growth inh: 12%; StopGo reporter: -28%; LASV entry inh: inconclusive; SARS PLpro yeast: -10%; MARV entry inh: inconclusive

Results for Cc1ccc(CSc2nnc(-c3ccncc3)o2)c(C)c1 ?
RE007 growth inh: -13%; StopGo reporter: -20%; LASV entry inh: 1%[46.1 µM]; SARS PLpro yeast: -6%; MARV entry inh: 15%[46.1 µM]

What do the screens show for `COCCn1c(C)cc(C(=O)CSc2nc3ccccc3c(=O)n2C(C)COC)c1C` (configuration not stated)?
RE007 growth inh: 20%; StopGo reporter: -6%; LASV entry inh: inconclusive; SARS PLpro yeast: -3%; MARV entry inh: inconclusive

Results for Cc1cccc(Oc2cc([N+](=O)[O-])cc3c2C(=O)Nc2ccccc2O3)c1 ?
RE007 growth inh: -2%; StopGo reporter: inconclusive; LASV entry inh: inconclusive; Cruzain inh noDet: -27%; SARS PLpro yeast: -4%; NS1 inh: 10%; MARV entry inh: inconclusive; Cruzain inh Det: -2.7%

How did Cc1nc2c(C(=O)NCCc3ccccc3)c[nH]n2c(=O)c1Cc1ccccc1F do in these assays?
StopGo reporter: -18%; LASV entry inh: 0%[46.1 µM]; Cruzain inh noDet: -8%; MARV entry inh: inconclusive; Cruzain inh Det: -16%

How did COc1ccc2c(CC(=O)Nc3cccc(S(=O)(=O)N4CCOCC4)c3)coc2c1 do in these assays?
RE007 growth inh: 17%; StopGo reporter: 16%; LASV entry inh: -29%; Cruzain inh noDet: -7%; SARS PLpro yeast: -6%; NS1 inh: 14%; MARV entry inh: inconclusive; Cruzain inh Det: -6.2%

What do the screens show for `COc1cc(NC(=O)c2onc(C)c2Cl)c(OC)cc1Cl`?
RE007 growth inh: -12%; StopGo reporter: -17%; Cruzain inh noDet: -14%; SARS PLpro yeast: 11%; NS1 inh: 3%; Cruzain inh Det: -1.8%

Results for Cc1cc(C(=O)Nc2ccc3c(c2)OCCO3)c2ccccc2n1 ?
RE007 growth inh: 17%; StopGo reporter: -20%; LASV entry inh: 0%; SARS PLpro yeast: -5%; MARV entry inh: 1%[46.1 µM]

What do the screens show for `Cn1nc([N+](=O)[O-])nc1Sc1nnnn1-c1ccc(C(=O)O)cc1`?
RE007 growth inh: -4%; StopGo reporter: 4%; LASV entry inh: 9%[46.1 µM]; SARS PLpro yeast: 23%; NS1 inh: 0%; MARV entry inh: -26%[46.1 µM]

How did CCOc1c(OC(C)=O)ccc(/C=C/c2ccc3cccc(OC)c3n2)c1[N+](=O)[O-] do in these assays?
RE007 growth inh: 29%; StopGo reporter: 12%; LASV entry inh: inconclusive; Cruzain inh noDet: inconclusive; SARS PLpro yeast: 25%; NS1 inh: 6%; MARV entry inh: 4%; Cruzain inh Det: -6.9%

How did CCc1nnc(NC(=O)CC23CC4CC(CC(C4)C2)C3)s1 do in these assays?
RE007 growth inh: 12%; StopGo reporter: -17%; SARS PLpro yeast: -1%; NS1 inh: 6%

What do the screens show for `CCOc1ccc(NC(=O)COc2ccc(C(=O)NC(C)c3ccc(S(N)(=O)=O)cc3)cc2OC)cc1` (configuration not stated)?
RE007 growth inh: 7%; StopGo reporter: -16%; LASV entry inh: -12%; MARV entry inh: inconclusive

What do the screens show for `Cc1ccc(/C=N/N2CCN(Cc3ccc(Cl)cc3)CC2)o1`?
RE007 growth inh: -24%; StopGo reporter: inconclusive; LASV entry inh: -17%; Cruzain inh noDet: -1%; SARS PLpro yeast: -13%; NS1 inh: -6%; MARV entry inh: -22%; Cruzain inh Det: 3.4%

How did N#Cc1ccc(NC(=O)Nc2ccc(Cl)cc2)cc1 do in these assays?
RE007 growth inh: 3%; StopGo reporter: inconclusive; LASV entry inh: inconclusive; Cruzain inh noDet: 10µM*; SARS PLpro yeast: -41%; NS1 inh: -44%; MARV entry inh: inconclusive; Cruzain inh Det: -0.7%

Results for CC1CCCCC1NC(=O)c1nn(C)c2c1CS(=O)(=O)c1ccccc1-2 (configuration not stated) ?
RE007 growth inh: 4%; StopGo reporter: -13%; SARS PLpro yeast: -8%; NS1 inh: -1%

Results for O=C(CCc1ccccc1)Nc1ccc(Cl)cn1 ?
RE007 growth inh: 41%; StopGo reporter: 28%; LASV entry inh: 2%; Cruzain inh noDet: -7%; SARS PLpro yeast: inconclusive; NS1 inh: -21%; MARV entry inh: inconclusive; Cruzain inh Det: -1.6%

What do the screens show for `CC(/C=C1\SC(=S)N(c2ccc(C(=O)O)cc2)C1=O)=C\c1ccccc1`?
RE007 growth inh: -3%; StopGo reporter: inconclusive; SARS PLpro yeast: -1%; NS1 inh: -2%

How did COc1cccc(NC(=O)CN(C)C(=O)Cn2[nH]c(=O)c3ccccc3c2=O)c1 do in these assays?
RE007 growth inh: 0%; StopGo reporter: -4%; LASV entry inh: 6%; SARS PLpro yeast: 1%; MARV entry inh: -8%

Results for Cc1ccc(NC(=O)COC(=O)C2COc3ccccc3O2)cc1S(=O)(=O)N1CCOCC1 (configuration not stated) ?
RE007 growth inh: 2%; StopGo reporter: 3%; LASV entry inh: -8%; Cruzain inh noDet: inconclusive; SARS PLpro yeast: -5%; NS1 inh: -13%; MARV entry inh: inconclusive; Cruzain inh Det: -6.1%

How did CC(=O)N1CCN(c2ccc(Nc3ncnc4c3oc3ccccc34)cc2)CC1 do in these assays?
RE007 growth inh: -11%; StopGo reporter: 28µM*; LASV entry inh: inconclusive; Cruzain inh noDet: 23%; SARS PLpro yeast: -7%; NS1 inh: inconclusive; MARV entry inh: inconclusive; Cruzain inh Det: -11%

Assay outcomes: PubChem, National Center for Advancing Translational Sciences (NCATS)
